Source: PubChem
Bst PK mod: modulators of Bacillus stearothermophilus pyruvate kinase; partly purified Bacillus stearothermophilus pyruvate kinase, luminescence ATP production; ribose 5-phosphate activator present at AC10; Potency, µM; actives 1.2% (n = 51,000); in the data active means potency below about 11 µM; inconclusive means mostly about 12 µM to 25 µM; inactive means weaker than that;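 the screen sought inhibitors and activators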;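 also: potency is read from the fitted curve at half-maximal effect; scaled between full activation by ribose 5 phosphate and full inhibition by luteolin; about four in five hits inhibit and the cells do not say which; series up to 57 µM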
YjeE inh: inhibitors of E. coli YjeE (TsaE); actives 0.05% (n = 71,000); Potency, µM; purified YjeE, fluorescence polarisation of a bound ADP probe; P0AF67; AID 605; active = well fitted falling curve; inconclusive = weaker or top-dose-only fall, or a rising curve; inactive = flat or poorly fitted curve;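 also: top concentration of the series not given in the record; excess ADP was the control for the full effect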
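Fluorescence polarization of a BODIPY Texas Red–ADP probe (2 uM) bound to purified YjeE (10 uM) was read after 15 min room-temperature incubation with compounds. Loss of polarization marks inhibitors; ADP serves as titrated control.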
Starred values were filed as active, the others as inactive; i = inactive; ? = inconclusive; . = no result given; & = joins results of further samples. The list is partial; the hit share may differ from the screen's.

YjeE inh	Bst PK mod	smiles
i	>57	Cc1nnc(N(C(=O)c2cnccn2)c2ccccc2)s1
i	.	CN(C)Cc1ccccc1-c1cncnc1NC1CC1
i	>57	COC(=O)C(CCSC)NC(=O)CNC(=O)C1CCCCC1 (centres undefined)
i	>57	C/C(N)=C(/C#N)C(=O)CSc1nnc(SCc2ccc(Cl)cc2)s1
i	.	O=C(NCc1ccccn1)[C@H]1C[C@@H]1[C@H](NP(=O)(c1ccccc1)c1ccccc1)c1ccccc1
i	>57	Cc1[nH]nc2c1C1(C(=O)N(Cc3ccc(Cl)cc3)c3ccccc31)C(C#N)=C(N)O2 (centres undefined)
i	>57	COC(=O)COc1ccc(S(=O)(=O)NCc2cccnc2)cc1C
i	>57	COc1ccc2cc(C(=O)N3CCCCCC3)sc(=O)c2c1OC
i	?	Cc1cc(C)n(-c2nc3ccccc3nc2N2CCN(C(=O)c3ccc(Cl)cc3)CC2)n1
i	>57	O=C(NC1(C(F)(F)F)C(=O)Nc2c1c(=O)[nH]c(=O)n2Cc1ccco1)C1CC1 (centres undefined)
i	.	Cn1cnc2c(NC3CCCC3)ncnc21
i	>57	Cc1cc(NC(=O)CCS(=O)(=O)c2nc(-c3ccccc3)cc(C(F)(F)F)n2)no1
i	>57	COc1ccc(C2C(C(=O)N3CCOCC3)c3ccccc3C(=O)N2c2ccc(OC)cc2)cc1 (centres undefined)
i	.	O=C(CN1C(=O)c2ccccc2S1(=O)=O)NC1CCCCCC1
i	>57	CCSc1nc(N2CCOCC2)c2ccccc2n1
i	>57	O=C(Nc1ccc(N2CCOCC2)cc1)c1ccc2nc(-c3ccco3)c(-c3ccco3)nc2c1
i	>57	CCOc1ccc(OC(=O)c2cccnc2)cc1
i	.	COc1ccc2c(c1)c1nnc(SCC(=O)N3C(C)CCCC3C)nc1n2C (centres undefined)
i	>57	CCOC(=O)C1CCCN(Cc2nc(N)nc(Nc3ccc(C)cc3)n2)C1 (centres undefined)
i	.	CSc1ncnc2c1ncn2[C@@H]1O[C@@H](CO)[C@H](O)O[C@@H]1O
i	.	COc1cccc(C2CC(c3ccc(F)cc3)Nc3nc(N)nn32)c1 (centres undefined)
i	>57	Cc1ccc(-n2c(Cc3cccn3C)nnc2SCC(=O)NCc2ccc3c(c2)OCO3)cc1
i	.	CC(=O)O[C@H]1CC[C@@]2(C)C(=CC[C@@H]3[C@H]4CC[C@@H]([C@H](C)C(=O)O)[C@]4(C)CC[C@H]32)C1
i	.	O=C(Nc1ccc(Cl)c(C(F)(F)F)c1)c1ccco1

As a working copy, part of the list above.
YjeE inh	Bst PK mod	smiles
i	>57	COc1ccc2cc(C(=O)N3CCCCCC3)sc(=O)c2c1OC
i	?	Cc1cc(C)n(-c2nc3ccccc3nc2N2CCN(C(=O)c3ccc(Cl)cc3)CC2)n1
i	>57	O=C(NC1(C(F)(F)F)C(=O)Nc2c1c(=O)[nH]c(=O)n2Cc1ccco1)C1CC1 (centres undefined)
i	.	Cn1cnc2c(NC3CCCC3)ncnc21
i	>57	Cc1cc(NC(=O)CCS(=O)(=O)c2nc(-c3ccccc3)cc(C(F)(F)F)n2)no1
i	>57	COc1ccc(C2C(C(=O)N3CCOCC3)c3ccccc3C(=O)N2c2ccc(OC)cc2)cc1 (centres undefined)
i	.	O=C(CN1C(=O)c2ccccc2S1(=O)=O)NC1CCCCCC1
i	>57	CCSc1nc(N2CCOCC2)c2ccccc2n1
i	>57	O=C(Nc1ccc(N2CCOCC2)cc1)c1ccc2nc(-c3ccco3)c(-c3ccco3)nc2c1
i	>57	CCOc1ccc(OC(=O)c2cccnc2)cc1
i	.	COc1ccc2c(c1)c1nnc(SCC(=O)N3C(C)CCCC3C)nc1n2C (centres undefined)
i	>57	CCOC(=O)C1CCCN(Cc2nc(N)nc(Nc3ccc(C)cc3)n2)C1 (centres undefined)
i	.	CSc1ncnc2c1ncn2[C@@H]1O[C@@H](CO)[C@H](O)O[C@@H]1O
i	.	COc1cccc(C2CC(c3ccc(F)cc3)Nc3nc(N)nn32)c1 (centres undefined)
i	>57	Cc1ccc(-n2c(Cc3cccn3C)nnc2SCC(=O)NCc2ccc3c(c2)OCO3)cc1

Other results.
YjeE inh	Bst PK mod	smiles
i	>57	COCc1nnc(N)s1
i	>57	COCCCNC(=O)C1CC(=O)N(CCc2ccc(OC)c(OC)c2)C1 (centres undefined)
i	.	O=C1CC(/C=C/c2ccco2)=Nc2ccccc2N1
.	>25.6	CCOc1ccc(C2C(C(=O)c3ccc(C)o3)=C(O)C(=O)N2CCN2CCOCC2)cc1OC (centres undefined)
i	>57	CCC(=O)NCC(c1cccs1)N1CCOCC1 (centres undefined)
i	>57	COc1ccc(OC)c(S(=O)(=O)N2CCC(C(=O)NCCc3ccc(OC)c(OC)c3)CC2)c1
i	>57	O=C(NCCc1nc2ccccc2[nH]1)c1ccco1
i	.	C=C(C)CNCCN
i	.	Cc1cc(NS(=O)(=O)c2ccc(NC(=O)COc3ccccc3C(C)C)cc2)no1
i	>57	Cc1csc(NC(=O)NC2(C(F)(F)F)Oc3ccccc3O2)n1
i	>57	O=C(CN1CCc2ccccc2C1)N1CCN(S(=O)(=O)c2ccccc2)CC1
i	i	O=C(Cn1nnc(-c2ccccc2-n2cnnn2)n1)N1CCCCC1
i	>57	Cc1ccsc1C(=O)OCC(=O)N1CC(=O)Nc2ccccc21
i	>57	COc1cc(OC)cc(OCC(O)Cn2ccnc2)c1 (centres undefined)
?	.	CC(C)(C)c1ccc(S(=O)(=O)/C=C\C#N)cc1
i	.	COc1cccc(-n2c(Cc3cc(=O)[nH]c(=O)[nH]3)nnc2SCC(=O)N2CCCCC2)c1
i	>57	Cc1ccc(-n2c(SCC(N)=O)nnc2-c2cccnc2)c(C)c1
i	>57	O=S(=O)(c1ccccc1)c1nc(-c2ccco2)oc1NCc1cccnc1
i	>57	CCOC(=O)C1=C(C)N=C2SC(C)C(=O)N2C1c1ccc(OCC)c(OCC)c1 (centres undefined)
i	>57	Cc1ccc(NC(=O)C2CC(=O)NC(Nc3cccc(C)c3)=N2)cc1 (centres undefined)
i	>57	CCN1CCN(S(=O)(=O)c2ccc(S(=O)(=O)NCC3CCCO3)cc2)CC1 (centres undefined)
i	>57	CCOc1ccc(C(=O)C2CCN(C(=O)c3ccccc3C(=O)O)CC2)cc1
i	>57	COc1ccc2[nH]c(=O)c(CN(Cc3nnnn3Cc3ccc(F)cc3)CC3CCCO3)cc2c1 (centres undefined)
i	.	Oc1cc(Cl)cc(Cl)c1Cl
i	>57	Cc1ccc(C)c(N(CC(=O)NCc2ccco2)C(=O)CCC(=O)Nc2ccccn2)c1
i	.	O=C(O)C1C2C=CC(C2)C1C(=O)NCCc1cccc(Cl)c1 (centres undefined)
i	>57	CC(C)(C)OC(=O)N1CCC(c2c(C(=O)O)cnn2-c2ccc(Cl)cc2)CC1
i	.	CCCSc1nnc(-c2ccccc2N)c(=O)[nH]1
i	2.08*	CCOc1ccc(-c2nnc(-c3ccncc3)o2)cc1
i	>57	N#CC1=C(N)N(c2ccccc2)C2=C(C(=O)CCC2)C1c1cccs1 (centres undefined)
i	.	Cc1ncc(CO)c2cc(S(=O)(=O)c3ccc(F)cc3)c(=O)oc12
i	.	CCCN1CCC(N2CCN(c3ccccc3OC)CC2)CC1
i	>57	COC(=O)c1ccc2c(c1)S(=O)(=O)NC(=NCCCN1CCOCC1)S2
i	>57	COC(=O)c1ccc(C(=O)Nc2ccc(N)cc2N)cc1
i	.	CC(C)Cc1cc(C(=O)Nc2ccc3c(c2)OCO3)no1
i	>57	COC(=O)C1(CO)NC(c2cccs2)C2C(=O)N(c3ccccc3)C(=O)C21 (centres undefined)
i	>57	COc1cc(-c2ccc(NC(=O)CN3CCCCC3)c(OC)c2)ccc1NC(=O)CN1CCCCC1
i	>57	COc1ccc(NC(=O)c2cccs2)cc1OC
i	>57	CC(C)C(=O)Nc1ccccc1N1CCN(C(=O)c2ccccc2)CC1
i	>57	Nc1nncn1C(=O)CCCOc1ccc(Cl)cc1Cl
i	>57	COc1cccc(-n2nnc3c(=O)n(Cc4ccccc4F)cnc32)c1
i	>57	O=C(CCN1C(=O)C2C3C=CC(C3)C2C1=O)Nc1ccccc1F (centres undefined)
i	.	COC(=O)N1CCC[C@@]2(CCN(c3ccncc3)C2)C1
i	>57	O=C(CSc1nnc(Cn2nnc3ccccc32)o1)N(Cc1ccc(F)cc1)c1ccccc1
i	.	CCOC(=O)N1CCC(N2CC34C=CC(O3)C(C(=O)Nc3ccc(F)cc3)C4C2=O)CC1 (centres undefined)
.	>25.6	CC12CCC(C(=O)NCCCN3CCOCC3)(OC1=O)C2(C)C (centres undefined)
i	.	COc1ccccc1C1NC(=O)CS1 (centres undefined)
i	>57	COc1cc2c(cc1OC)C(C)N(C(=O)CCN1C(=O)C3C4C=CC(C4)C3C1=O)CC2 (centres undefined)
i	?	COc1ccccc1N1CCN(S(=O)(=O)c2ccccc2)CC1
i	.	COCCNc1nc(-n2nc(C)cc2C)nc2sc3c(c12)CCCC3
.	>25.6	CC(C)Cc1[nH]c(=O)c(C#N)c2c1COC(C)(C)C2
i	>57	CN(C(=O)C1CCN(S(=O)(=O)c2cccs2)CC1)C1CCCCC1
i	>57	CN1CCN(C(=O)c2cc3sccc3n2CC(=O)c2ccccc2)CC1
i	.	Cc1cccc(CNc2ncnc3ccc(-c4c(C)noc4C)cc23)c1
i	>57	CC(C(=O)O)n1nc2ccccc2n1 (centres undefined)
i	>57	Fc1ccc(C(c2nnnn2Cc2cccs2)N2CCN(C3CCCC3)CC2)cc1 (centres undefined)
i	>25.6&>57	O=C(O)c1cc(-c2ccccc2)nc2ccccc12
i	.	CCN(C(C)=O)c1nnc(CSc2nc3ccccc3s2)s1
i	>57	Cc1cc(C(=O)N2CCN(C(c3ccccc3)c3ccccc3)CC2)no1
i	>57	CC(=O)N(Cc1cc(=O)[nH]c2ccccc12)c1cccc(C)c1

Other records.
YjeE inh	Bst PK mod	smiles
i	.	FC(F)(F)c1cccc(Cl)c1
i	.	CCC(C)NC(=O)CS(=O)Cc1nc(-c2cccc(OC)c2)oc1C (centres undefined)
i	>57	CC(=O)c1c(C)[nH]c(C(=O)NCc2ccccc2Cl)c1C
i	>57	O=C(NCC1CCCO1)C(C(=O)c1ccccc1)n1ccccc1=O (centres undefined)
i	>57	CCS(=O)(=O)N1CCCC(C(=O)NC2CCCCC2C)C1 (centres undefined)
i	>57	COc1ccc(OC)c(C(c2nnnn2CCc2ccccc2)N2CCC(C(N)=O)CC2)c1 (centres undefined)
i	>57	COc1cc(CN2CCC(C(=O)NC3CCCC3)CC2)ccc1O
i	.	CNC[C@H](O)c1ccc(OC(=O)C(C)(C)C)c(OC(=O)C(C)(C)C)c1
i	.	COc1ccc(OC)c(NC2c3ccccc3C(=O)N2c2cccnc2)c1 (centres undefined)
i	>57	COc1ccccc1CNC(=O)C1CCN(S(=O)(=O)N2CC(C)CC(C)C2)CC1 (centres undefined)
i	>57	OC1CNCc2cc3c(cc21)OCCO3 (centres undefined)
i	.	CCCn1c(-c2ccc(F)cc2)nc2c(NCCN(C(C)C)C(C)C)nc(C)nc21

Looked up one by one from above:
YjeE inh	Bst PK mod	smiles
i	>57	COc1ccc(OC)c(C(c2nnnn2CCc2ccccc2)N2CCC(C(N)=O)CC2)c1 (centres undefined)
i	>57	CCS(=O)(=O)N1CCCC(C(=O)NC2CCCCC2C)C1 (centres undefined)

More compounds follow:
YjeE inh	Bst PK mod	smiles
i	.	Cc1ccc(S(=O)(=O)N(C)CCCC(=O)N2CCOCC2)cc1
i	>57	CCOC(=O)Cc1[nH]nc2c1C(c1cccc(OC)c1OC)C(C#N)=C(N)O2 (centres undefined)
i	>57	COc1ccc(CCNC(=O)c2cc(-c3ccccc3O)n[nH]2)cc1OC
i	>57	CN(C)c1ccc(-c2noc(C3CCN(S(=O)(=O)c4ccc(C(=O)O)cc4)CC3)n2)cc1
i	>57	COC(=O)c1cc(=O)n2c(-c3ccccc3)csc2n1
i	>57	COc1cc(CN(C(=O)c2ccco2)c2ccc(C)cc2)ccc1O
i	>57	CC(C)c1c(O)nc(SCCC(=O)O)[nH]c1=O
i	>57	CCCCCn1c(SCC#N)nc2cc(C(=O)NCC3CCCO3)ccc2c1=O (centres undefined)
i	.	O=c1oc2c(CN3CCOCC3)c(O)ccc2c2c1CCCC2
i	.	CCCCC(=O)N(C)C
i	>57	COc1cc(CNC2CCC(C)C2)cc(OC)c1 (centres undefined)
i	>57	O=C(O)C1C2CCC(C2)C1C(=O)Nc1nc2ccccc2s1 (centres undefined)
i	>57	O=C(Cc1cccs1)Nc1ccccn1
.	>25.6	CC1(C)Cc2c(c(N3CCOCC3)nc3snc(Br)c23)CO1
i	>57	Cc1c(NC(=O)Cn2nc(C(F)(F)F)c3c2CCCC3)c(=O)n(-c2ccccc2)n1C
i	.	O=C(NC1CC1)c1cc2c(s1)-c1ccccc1OC2
i	>57	O=C(Nc1nccs1)C1C2CC3OC(=O)C1C3C2 (centres undefined)
i	.	COc1ccc(Oc2ncc3nc(-c4ccc(Cl)cc4)c(=O)n(C)c3n2)cc1
i	>57	Cc1cccc(-c2nnc(NC(=O)c3ccc(Cl)cc3)o2)c1
i	>57	COc1cccc(C2=NOC(C(=O)NCCN3CCOCC3)C2)c1 (centres undefined)
i	>57	O=C(OCC(=O)c1ccco1)c1ccc2ncsc2c1
i	.	CN1CCN(CCCN)CC1
i	>57	C=CCn1sc(N)c(C(=O)OCC)c1=S
i	>57	CC(C)(C)C1=Nn2c(nnc2-c2ccccc2F)SC1
i	.	O=C(N[C@@H](Cc1ccccc1)C(=O)CCl)OCc1ccccc1
i	>57	Cc1csc(SCC(=O)Nc2ccc(S(=O)(=O)N3CCCC3)cc2)n1
i	i	COc1ccc2nc(N3CCCCC3)c(C#N)cc2c1
